From PubChem
MT1-MMP reporter: MT1-MMP gene expression reporter suppression – cell-based, luciferase reporter, luminescence (AID 618). MT1-MMP promoter luciferase reporter cells, luminescence. calls from a first round at 10 µM; hits with a dose series show EC50 in µM. 87,000 tested, 0.62% active;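 active = over half of the reporter light lost at 10 µM or EC50 under 50 µM; inactive = the rest and hits that failed the dose series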;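 note: actives suppress MT1-MMP promoter-driven transcription so potencies describe inhibitors; HT1080 fibrosarcoma cells; overnight exposure; toxic or luciferase-blocking compounds were not removed from the actives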
Hsc70: Hsc70 inhibitors, probe displacement, primary screen, biochemical, fluorescence polarization (AID 568) | Hsc70 fluorescence polarization, probe displacement; higher % means a stronger effect; strong numbers were not always called active | displacement, % at 20 µM, or IC50 in µM where a hit was titrated | 83,000 tested, under 10 active;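 active = displacement above 50% without optical interference and an IC50 on retest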;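 note: ATPase domain with a fluorescein-tagged ATP probe; 0% = vehicle and 100% = excess ADP; read after one hour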
WNV NS2B-NS3 inh: blocks West Nile virus NS2B-NS3 protease activity; P06935; z-score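 (tested at a level between 10 and 100 µM)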; WNV NS2B-NS3 protease, fluorogenic substrate Ex360/Em465; hits give low values; 65,000 tested, 0.18% active; AID 577;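 active = z-score at -3 or under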;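 note: score is relative to mean and spread of the compound wells of a plate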
Target sequence (P06935 1371-1501 limits assumed): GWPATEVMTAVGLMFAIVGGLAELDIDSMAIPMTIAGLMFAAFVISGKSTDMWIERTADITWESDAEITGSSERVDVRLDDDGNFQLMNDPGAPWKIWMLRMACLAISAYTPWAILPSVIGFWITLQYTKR
Target sequence (P06935 1502-1679 limits assumed): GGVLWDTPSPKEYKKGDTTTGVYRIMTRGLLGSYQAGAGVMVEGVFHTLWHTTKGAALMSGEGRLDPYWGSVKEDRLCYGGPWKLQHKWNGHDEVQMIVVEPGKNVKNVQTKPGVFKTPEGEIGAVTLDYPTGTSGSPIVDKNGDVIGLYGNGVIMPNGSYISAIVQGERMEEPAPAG
* hit, by the source's call; i = inactive; · = no result given.

Order of results – MT1-MMP reporter, Hsc70, WNV NS2B-NS3 inh
Cc1cc(C)n2nc(SC(C)C(=O)NCc3ccco3)nc2n1 (stereo unspecified)
→ i, 6.6%, 0.47
COCCn1c(=S)[nH]c2ccc(N(C)C)cc2c1=O
→ i, 15%, -0.19
CCOC(=O)c1c(C)c(C(=O)NC2CCCCC2)c(C)n1CC
→ i, -0.1%, -0.74
CCCCCn1c(SCc2ccncc2)nc2cc(C(=O)NCc3ccco3)ccc2c1=O
→ i, 1.2%, 1.3
CN(C/C(O)=C(\C#N)c1ccccc1)C1CCCCC1
→ i, 0.2%, 0.03
Cc1cc(=O)oc(C)c1C(=O)Nc1cnc2ccccc2c1
→ i, -6.4%, -0.91
COc1ccc(C)cc1NC(=O)C(C)N(c1ccc(C)cc1)S(C)(=O)=O (stereo unspecified)
→ i, 6.2%, ·
CC(=O)Nc1cc(-c2ccccc2)ccc1O
→ i, -2.6%, 0.41
O=C(CN1CCN(S(=O)(=O)/C=C/c2ccccc2)CC1)NC(=O)NCc1ccco1
→ i, 3.2%, -0.55
C=CCn1c(SCC(=O)c2ccccc2)nnc1-c1ccc2c(c1)OCO2
→ i, 5.8%, -0.26
CC(C)C(c1nnnn1Cc1ccccc1)N1CCN(Cc2ccco2)CC1 (stereo unspecified)
→ i, -6.4%, -0.45
Cc1ccccc1-c1nc(CN2CCC(C(=O)O)CC2)c(C)o1
→ i, 2.6%, -0.41
CC(C)=C1C2C=CC1C(C(=O)Nc1cccc(C)c1)C2C(=O)O (stereo unspecified)
→ i, -0.1%, 0.95
O=S(=O)(c1ccc2nc(COc3ccc(Cl)cc3Cl)[nH]c2c1)N1CCOCC1
→ i, -6.3%, 0.21
O=C(/C=C/Sc1ccccc1)c1ccccc1
→ i, 1.5%, ·
Cc1nc2ccc(S(=O)(=O)NCC(=O)N3CCc4ccccc43)cc2s1
→ i, 0.5%, -0.2
CCN(CC)CC(=O)Nc1cc(C)c2c(=O)oc3ccccc3c2n1
→ i, -0.8%, 1.1
O=C(Nc1cccc(Cl)c1Cl)C1CC(=O)N(c2ccc(Br)cc2)C1 (stereo unspecified)
→ i, 1.1%, ·
O=C(CNS(=O)(=O)c1ccccc1)N1CCN(c2ccccc2)CC1
→ i, 3.1%, 0.02
O=[N+]([O-])c1cccnc1N1CCC(c2cc(-c3ccc(Cl)cc3Cl)n[nH]2)CC1
→ i, 3.4%, ·

Carrying on:
Order of results – MT1-MMP reporter, Hsc70, WNV NS2B-NS3 inh
N#Cc1c2n(c(=O)[nH]c1=O)CCCCC2
→ i, -2.5%, -0.53
O=S(=O)(c1cccc(C(F)(F)F)c1)N1CCN(c2nnnn2-c2ccccc2)CC1
→ i, -0.7%, 0.3
Cc1cc(C)nc(Sc2ncnc3sc4c(c23)CCC4)n1
→ i, 2.3%, ·
COc1ccc(C2C(C(C)=O)=C(C)N=c3s/c(=C\c4ccc5c(c4)OCO5)c(=O)n32)c(OC)c1 (stereo unspecified)
→ i, -14%, -0.21
COC(=O)c1ccc(C(=O)OC)c(NC(=O)CN2CCN(c3ccccc3)CC2)c1
→ i, 4.1%, 2.1
Cc1c(N(C)C(=O)C23CC4CC(CC(C4)C2)C3)c(=O)n(-c2ccccc2)n1C
→ i, -0.6%, 1.5
O=C(Nc1ccccn1)c1cccnc1
→ i, -1.4%, 1.6
COC(=O)c1sccc1NC(=O)c1ccc(Br)s1
→ i, 0.1%, ·
COc1ccc2c(c1OC)C(=O)OC2Nc1ccccn1 (stereo unspecified)
→ i, -1.2%, 1.1
O=C(OC(C(=O)NC1CCCC1)c1ccccc1F)c1ccco1 (stereo unspecified)
→ i, -5.4%, -0.94
COc1ccc(C(=O)NC(CC(C)C)C(=O)O)cc1OC (stereo unspecified)
→ i, -2.8%, ·
CNc1nc(Oc2ccccc2C(=O)OC)nc(SC)n1
→ i, 0.7%, -0.25
Cn1c(=N)n(CC(O)c2ccccc2)c2ccccc21 (stereo unspecified)
→ i, 2.5%, ·
CCCCCOc1ccc(/C=c2\sc3ncnn3c2=O)cc1
→ i, -0.8%, -0.77
O=S(=O)(CCOc1ccccc1)c1nc2ccccc2[nH]1
→ i, 0.0%, 0.89
O=C(COC(=O)c1ccc2ccccc2n1)Nc1ncc(C(F)(F)F)cc1Cl
→ i, -0.5%, ·
CCNC(=O)CN1C(=O)NC(CCc2ccccc2)C1=O (stereo unspecified)
→ i, -2.7%, ·
Cn1c(SCC(=O)NC2CC2)nnc1-c1cccc(NC(=O)c2ccccc2F)c1
→ i, -2.6%, ·
O=C(CSCc1c(F)cccc1Cl)NCc1ccco1
→ i, 2.2%, -0.05
CCc1ccccc1NC(=O)CSC1=C(C#N)C(c2ccc3c(c2)OCO3)C2=C(CCCC2=O)N1 (stereo unspecified)
→ i, -6.6%, 0.88

Further records.
Order of results – MT1-MMP reporter, Hsc70, WNV NS2B-NS3 inh
Cc1cc(C)c2cc(C#N)c(N3CCCC3)nc2c1
→ i, 3.1%, -0.79
CCOC(=O)C1=C(C)N(C)C(=O)NC1c1c(C)nn(-c2ccc(C)cc2)c1Cl (stereo unspecified)
→ i, 4.3%, ·
COc1ccccc1C(=O)N1CCN(c2ccccn2)CC1
→ i, 2.8%, 1.3
CCOC(=O)c1ccc(NC(=O)c2ccc(CN3CCOCC3)cc2)cc1
→ i, 4.2%, -0.36
O=C(O)c1ccc(N2CCCCC2)cc1
→ i, -3.7%, -0.16
Cc1c(C(=O)NCC2COc3ccccc3O2)oc2ccc(S(=O)(=O)N3CC(C)CC(C)C3)cc12 (stereo unspecified)
→ i, -0.4%, ·
O=C(Nn1c(=O)[nH]c2ccccc2c1=O)c1ccco1
→ i, -2.7%, ·
O=C(NC1CCCCCC1)C1c2ccccc2C(=O)N1C1CC1 (stereo unspecified)
→ i, 0.8%, 0.47
CC(C)[C@H](NC(=O)Nc1ccc(S(N)(=O)=O)cc1)C(=O)O
→ i, -4.3%, 1.3
Cc1nnc(SCC(=O)Nc2ccc(N3CCOCC3)cc2)o1
→ i, 4.2%, -0.54
CCOc1ccc(Cl)cc1S(=O)(=O)n1nnc2ccccc21
→ i, 3.4%, 1.7
O=C(Nc1ccc(CN2CCOCC2)cc1)c1cc2ccccn2n1
→ 3.4µM*, 3.5%, 0.05
Cc1cc(SCCC(=O)O)nc2ccccc12
→ i, -2.6%, 0.11
O=S(=O)(c1ccc(Cl)s1)N1CCC(Cc2ccccc2)CC1
→ i, 0.1%, ·
COc1ccc(OC)c(C2C3=C(CCCC3=O)Nc3nc4ccccc4n32)c1 (stereo unspecified)
→ i, 4.7%, -0.32
CCOc1ccc(OCC)c(NC(=O)CN2CCN(CC)CC2)c1
→ i, 0.4%, ·
CCN1CCN(C(=O)c2cn(CC)c3ccc(S(=O)(=O)N(C)C)cc3c2=O)CC1
→ i, 4.7%, 0.71
CCOc1ccccc1OCCn1nnc2ccccc21
→ i, 0.8%, -0.46
COc1cccc(/C=C/C(=O)c2ccc[nH]2)c1
→ i, -0.3%, ·
CC(OC(=O)c1ccncc1)C(=O)Nc1cccc(Cl)c1 (stereo unspecified)
→ i, 4.7%, -0.96

The list goes on:
Order of results – MT1-MMP reporter, Hsc70, WNV NS2B-NS3 inh
CNc1oc(Cc2ccccc2)nc1S(=O)(=O)c1ccc(Cl)cc1
→ i, 2.2%, 0.52
CCN1C(=O)N(CC)C(O)(c2ccccc2)C1(O)c1ccccc1 (stereo unspecified)
→ i, 5.5%, -0.14
Cc1c(C(=O)N2CCCCCC2)nnn1-c1nonc1N
→ i, 2.7%, ·
Nc1[nH]n(-c2ccccc2)c(=O)c1N=Nc1ccccc1[N+](=O)[O-]
→ i, 3.2%, ·
CNC(=O)CSCc1c(Cl)cccc1Cl
→ i, 4.8%, 0.09
COCCn1c(-c2ccc(OC)cc2)nc2ccccc21
→ i, 1.7%, ·
CCOc1cc(C2C(C#N)=C(N)OC(C)=C2C(C)=O)cc(Br)c1O (stereo unspecified)
→ i, 77%, -1.2
O=C(Oc1cc(-c2ccccc2)no1)c1cccc(C(F)(F)F)c1
→ i, -2.2%, ·
Cc1ccccc1NS(=O)(=O)c1ccc(OCC(=O)NCc2ccco2)cc1
→ i, 4.8%, 1.5
O=C(O)CSc1nnc(-c2ccco2)o1
→ i, 9.6%, -0.11
CCNc1cc2oc(=O)c(CN3CCOCC3)c(C)c2cc1C
→ i, 17%, 6.2
Cc1cc(N2C(=O)C(O)=C(C(=O)c3ccc(C)o3)C2c2cccs2)no1 (stereo unspecified)
→ i, -1.7%, -0.4
O=C(CN1CCCC1)Nc1ccc(-c2nc3cc(NC(=O)CN4CCCC4)ccc3o2)cc1
→ i, 9.9%, -1.6
COP(=O)(/C=C/c1ccccc1)C(O)c1ccc(F)cc1 (stereo unspecified)
→ i, -3.1%, -0.22
Cc1ccc(Cn2c(SCC(=O)NCc3ccco3)nc3ccsc3c2=O)cc1
→ i, -8.1%, 0.08
COc1ccc(-n2c(SCC(=O)N3CCCCC3)nnc2-c2cccnc2)cc1
→ i, -5.2%, 0.69
N#CCN1CCN(CC(=O)Nc2cccc3ccccc23)CC1
→ i, 6.0%, ·
COC(=O)c1ccc2c(=O)n(CCCCCC(=O)NCc3ccccn3)c(=O)[nH]c2c1
→ i, 4.0%, 0.47
CCOc1ccc(CCNC(=O)C2CCC(=O)N2C2CCCCC2)cc1OCC (stereo unspecified)
→ i, 5.8%, -0.86
Cc1ccc(S(=O)(=O)Cn2nnnc2CN2CCN(C(=O)c3ccco3)CC2)cc1
→ i, 0.3%, -1

(continued)
Order of results – MT1-MMP reporter, Hsc70, WNV NS2B-NS3 inh
Cc1cccc(-c2c3c(=O)n(C)c(=O)n(C)c3cn2CCO)c1
→ i, 2.9%, -0.38
COc1ccc(-c2cc3ccccc3oc2=O)cc1NC(=O)c1ccc(Br)o1
→ i, -9.7%, -0.15
Cc1cc(-n2c(C)cc(C(=O)CSc3ncnc4ccccc34)c2C)no1
→ i, 2.7%, -0.71
COc1cc(OC)cc(C(C(=O)NC2CCCCC2)N(C(=O)c2ccno2)c2ccccc2)c1 (stereo unspecified)
→ i, 0.3%, ·
CCOC(=O)Nc1ccc2c(c1)N(C(=O)N1CCN(C)CC1)c1ccccc1S2
→ i, -3.4%, 0.5
CCN(CCCNC(=O)C1CCCN(S(=O)(=O)c2cnc[nH]2)C1)c1ccccc1 (stereo unspecified)
→ i, 3.5%, -0.55
CCOC(=O)C1CCCN(C(=O)CC(c2ccccc2)c2ccccc2)C1 (stereo unspecified)
→ i, -0.6%, ·
CCCCCCC(c1c(C)n(C)n(-c2ccccc2)c1=O)c1c(C)n(C)n(-c2ccccc2)c1=O
→ i, 8.8%, 1
COC(=O)CSc1nnc(CNC(=O)c2ccccc2OC)n1-c1ccc(OC)cc1
→ i, -0.9%, 0.58
COc1ccc(NC(=O)C(CC(=O)O)Cc2ccccc2)cc1 (stereo unspecified)
→ i, 4.3%, -0.38
Cc1cnn(-c2ccc3nnc(-c4ccc(Br)cc4)n3n2)c1
→ i, -5.0%, 1.6
CC1=CCC2C(=O)N(c3cc(C)on3)C(=O)C2C1 (stereo unspecified)
→ i, 4.4%, ·
CCn1nnnc1SCC(=O)Nc1cccc(NC(C)=O)c1
→ i, 5.3%, 0.14
CC(C)(C)c1ccc2c(c1)OCC(C(=O)O)O2 (stereo unspecified)
→ i, -2.2%, -0.5
CS(=O)(=O)c1ccc(Cl)c(NC(=O)COC(=O)CNC(=O)c2ccc(Br)o2)c1
→ i, -2.4%, -0.17
CCOC(=O)C1=C(C)Nc2ncnn2C1c1ccccc1F (stereo unspecified)
→ i, -3.5%, -0.83
CC(CCc1ccccc1)NC(=O)CSc1nccc(=O)[nH]1 (stereo unspecified)
→ i, 0.1%, -1.3
CN(C)CCOC(=O)c1cccc(Br)c1
→ i, 6.4%, ·
COc1cccc(C2C(C(N)=O)=C(C)Nc3nc(-c4ccccc4Cl)nn32)c1 (stereo unspecified)
→ i, -2.8%, -0.85
COC(=O)c1[nH]c2ccc(C)cc2c1NC(=O)CN1CCN(c2ccc(F)cc2)CC1
→ i, 2.0%, 1.4

Following part.
Order of results – MT1-MMP reporter, Hsc70, WNV NS2B-NS3 inh
CCCOC(=O)c1ccc(OC(=O)c2ccco2)cc1
→ i, -5.3%, -0.18
CC(C)(C)Nc1nc(SCc2ccccc2)nc(N2CCOCC2)n1
→ i, 5.4%, -1.3
Cc1ccc(CS(=O)(=O)CCC(=O)N2CCOCC2)cc1
→ i, 0.1%, -1
COc1ccc(S(=O)(=O)N2CCN(c3ccccc3OC)CC2)cc1OC
→ i, 8.0%, -0.69

Reformatted: entries from further up.
Cc1c(C(=O)N2CCCCCC2)nnn1-c1nonc1N
  MT1-MMP reporter = i; Hsc70 = 2.7%; WNV NS2B-NS3 inh = ·
Nc1[nH]n(-c2ccccc2)c(=O)c1N=Nc1ccccc1[N+](=O)[O-]
  MT1-MMP reporter = i; Hsc70 = 3.2%; WNV NS2B-NS3 inh = ·
CNC(=O)CSCc1c(Cl)cccc1Cl
  MT1-MMP reporter = i; Hsc70 = 4.8%; WNV NS2B-NS3 inh = 0.09
COCCn1c(-c2ccc(OC)cc2)nc2ccccc21
  MT1-MMP reporter = i; Hsc70 = 1.7%; WNV NS2B-NS3 inh = ·

This is a subset. The share of hits here may be higher or lower than overall.
